PrP 5UTR inh = inhibition of PrP 5' UTR reporter expression; AID 488862; cell-based PrP 5' UTR mRNA reporter, plate reader; inhibition, % (test concentration not listed); actives 0.35% (n = 340,000);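 active means every replicate at 50% or more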;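 further: 0 = median of the neutral control wells; tested in H4 reporter cells; numbers are from one replicate; inactives centre near -14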
Mtb hypoxia rep = Mtb hypoxia fluorescent reporter inhibition. M. tuberculosis hypoxia-regulated fluorescent reporter, fluorescence. fluorescence inhibition, % (no concentration beside the values). actives 0.1% (n = 300,000). AID 1159583;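 active means 35 to 45% if threefold the growth effect, above 45% if 1.5-fold the growth effect; inactive means the rest, general growth blockers included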;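 further: wells of about 50 µL received 100 nL stock; 0% = vehicle wells and 100% = reference inhibitor wells; whole bacteria with a GFP reporter of the hypoxia response; strong numbers were not always called active; many hits fall short of the cut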
BJeLR lethal = kills HRASV12-expressing BJeLR cells; actives 0.17% (n = 300,000); AID 1554; inhibition, % (test concentration not listed); BJeLR (HRASV12) viability, CellTiter-Glo ATP luminescence, 48 h; reference of the scale not given here;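 active means replicate mean above 50%; inconclusive means above 50% but judged a plate artefact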;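 further: 50 nL library stock added to about 25 µL; numbers are from one replicate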
Sa ugtP lethal = kills S. aureus RN4220 lacking UgtP; S. aureus RN4220 ugtP deletion, OD600 growth, 16 h; some inactives read as strong as hits; growth inhibition, % (test concentration not listed); actives 0.54% (n = 330,000);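 active means z-score under -3 and OD600 up to 0.15 on both plates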;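 further: plate controls were untreated wells for no effect and antibiotic for full effect; wells of about 80 µL received 100 nL stock; the first replicate is given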
RN4220 kill = kills Staphylococcus aureus RN4220; S. aureus RN4220 growth, OD600, 16 h; inhibition, % (concentration not given with the values); actives 0.33% (n = 330,000);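 active means z-score of -3 or lower and OD600 up to 0.18 on both plates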;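 further: plate controls were untreated cells for no effect and reference antibiotic for full effect; stock transfer was 100 nL into about 80 µL; one replicate is shown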
Autofluor counter = flagged as autofluorescent in microsphere protease counterscreen. compound autofluorescence counterscreen, microsphere flow cytometry; active compounds read high. fluorescence intensity (test concentration not listed). actives 3.1% (n = 360,000). AID 624483;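 active means at least 3 SD above the mean of all compounds, about 16000 in these data; inconclusive means too few beads counted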;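 further: 100 nL of 1 mM stock went into each well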
Mtb hypoxia rep growth = also measured in Mtb hypoxia rep; calls as there; growth inhibition, %; measured here: M. tuberculosis growth (absorbance);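 0% = vehicle and 100% = reference antibiotic; read after six days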
Numbers without * were called inactive; ? = inconclusive; / = not tested or not shown.

Codes – A = PrP 5UTR inh; B = Mtb hypoxia rep; C = Mtb hypoxia rep growth; D = BJeLR lethal; E = Sa ugtP lethal; F = RN4220 kill; G = Autofluor counter
molecule: CC(C)Nc1nc(NC(C)C)nc(C(=O)OCCO)n1
  A: 8 | B: 6 | C: 8 | D: -1 | E: 8 | F: 7.8 | G: 4225
molecule: CC(C)CCN1CCN(CC(c2ccccc2)c2ccccc2)CC1CCO (configuration not stated)
  A: -29 | B: -8 | C: -6 | D: 2 | E: 1 | F: -1.0 | G: 4609
molecule: Cc1nnc(NC(=O)CSc2nnc(C)c(=O)n2N)s1
  A: -3 | B: 16 | C: 0 | D: -9 | E: 11 | F: -0.6 | G: 5856
molecule: COc1cccc(-n2c(SCc3cc(=O)oc4cc(O)c(O)cc34)nc3ccccc3c2=O)c1
  A: -13 | B: 10 | C: -4 | D: 25 | E: -19 | F: 43 | G: 10864
molecule: Cc1ccc(NC(=O)Nc2ccc([N+](=O)[O-])cc2)nc1
  A: -41 | B: 4 | C: 0 | D: 2 | E: 1 | F: 7.8 | G: 3730
molecule: CCOC(=O)N1CCN(C(=O)CN(c2ccc(OCC)cc2)S(C)(=O)=O)CC1
  A: -21 | B: -7 | C: 2 | D: -5 | E: -2 | F: 0.0 | G: 22023*
molecule: CC(=O)N(NC(=O)c1ccc(C)cc1)C1CC(=O)N(c2ccccc2Cl)C1=O (configuration not stated)
  A: -13 | B: 17 | C: 7 | D: 6 | E: -5 | F: -0.3 | G: 1944
molecule: CC1CCC/C(=N\NC(=O)COc2ccccc2Cl)C1 (configuration not stated)
  A: -14 | B: / | C: / | D: -3 | E: / | F: / | G: 2626
molecule: Nc1c(C(=O)Nc2ccc3c(c2)OCCO3)nnn1Cc1ccc(Br)cc1
  A: -91 | B: 2 | C: 6 | D: 15 | E: -1 | F: 1.2 | G: ?
molecule: On1nnc2ccccc21
  A: 10 | B: 12 | C: 0 | D: 7 | E: 5 | F: 6.2 | G: ?

An excerpt of the results above, as a working copy:
Codes – A = PrP 5UTR inh; B = Mtb hypoxia rep; C = Mtb hypoxia rep growth; D = BJeLR lethal; E = Sa ugtP lethal; F = RN4220 kill; G = Autofluor counter
molecule: COc1cccc(-n2c(SCc3cc(=O)oc4cc(O)c(O)cc34)nc3ccccc3c2=O)c1
  A: -13 | B: 10 | C: -4 | D: 25 | E: -19 | F: 43 | G: 10864
molecule: Cc1ccc(NC(=O)Nc2ccc([N+](=O)[O-])cc2)nc1
  A: -41 | B: 4 | C: 0 | D: 2 | E: 1 | F: 7.8 | G: 3730
molecule: CCOC(=O)N1CCN(C(=O)CN(c2ccc(OCC)cc2)S(C)(=O)=O)CC1
  A: -21 | B: -7 | C: 2 | D: -5 | E: -2 | F: 0.0 | G: 22023*
molecule: CC(=O)N(NC(=O)c1ccc(C)cc1)C1CC(=O)N(c2ccccc2Cl)C1=O (configuration not stated)
  A: -13 | B: 17 | C: 7 | D: 6 | E: -5 | F: -0.3 | G: 1944
molecule: CC1CCC/C(=N\NC(=O)COc2ccccc2Cl)C1 (configuration not stated)
  A: -14 | B: / | C: / | D: -3 | E: / | F: / | G: 2626
molecule: Nc1c(C(=O)Nc2ccc3c(c2)OCCO3)nnn1Cc1ccc(Br)cc1
  A: -91 | B: 2 | C: 6 | D: 15 | E: -1 | F: 1.2 | G: ?

Additional records:
Codes – A = PrP 5UTR inh; B = Mtb hypoxia rep; C = Mtb hypoxia rep growth; D = BJeLR lethal; E = Sa ugtP lethal; F = RN4220 kill; G = Autofluor counter
molecule: CC(=O)Nc1ccc(NC(=O)C2CCCN2C(=O)Nc2ccc(F)cc2)cc1 (configuration not stated)
  A: -4 | B: 4 | C: -2 | D: -2 | E: 2 | F: -2.0 | G: 3590
molecule: CCOC(=O)C1CCCN(C(=O)CN2C(=O)c3ccccc3S2(=O)=O)C1 (configuration not stated)
  A: -8 | B: 21 | C: 42 | D: / | E: -1 | F: 0.9 | G: 3773
molecule: COc1ccc(-n2c(O)c(C=NCCCn3ccnc3)c(=O)[nH]c2=O)cc1
  A: -7 | B: -80 | C: -14 | D: -1 | E: 3 | F: 0.6 | G: 8908
molecule: CC1Cc2ccccc2N1C(=O)CSc1nnc(N)s1 (configuration not stated)
  A: -8 | B: 11 | C: 0 | D: 0 | E: 3 | F: 2.9 | G: 4381
molecule: O=C(NC1CCCCC1)C1CCN(C(=O)c2ccc(-c3ccccc3)cc2)CC1
  A: -16 | B: 8 | C: 10 | D: -4 | E: 0 | F: 3.3 | G: 4672
molecule: O=C(COc1ccccc1Cl)Nc1ccc(Cl)cn1
  A: -25 | B: 5 | C: 0 | D: -1 | E: 0 | F: 0.3 | G: 8457
molecule: COc1ccc(NC(=O)n2ncc3cc(Cl)ccc32)cc1OC
  A: -33 | B: -2 | C: 5 | D: -10 | E: 4 | F: 0.6 | G: 3799
molecule: CC1CCN(c2ncnc3nc[nH]c23)CC1
  A: -7 | B: 5 | C: 5 | D: 4 | E: 1 | F: 3.9 | G: 3966
molecule: Oc1ccccc1-c1nc(NC2CCCC2)c2ccccc2n1
  A: -12 | B: -1 | C: -3 | D: 0 | E: 65 | F: 38 | G: 3765
molecule: CCn1cc(C(=O)N[C@@H](CCSC)C(=O)NCCCN2CCOCC2)c(=O)c2cc3c(cc21)OCO3
  A: 1 | B: 4 | C: 8 | D: 3 | E: 1 | F: 4.4 | G: 5475
molecule: CNC(=S)NN=Cc1ccc(OCc2ccccc2)c(Br)c1
  A: / | B: 3 | C: -11 | D: / | E: -4 | F: 2.1 | G: /
molecule: CC(C)(C)c1ccc(OC(=O)N2CCCCC2)cc1
  A: -73 | B: -2 | C: 8 | D: 4 | E: -4 | F: -6.4 | G: 3941
molecule: COc1ccccc1NS(=O)(=O)c1cc(NC(=O)C(C)(C)C)ccc1N1CCOCC1
  A: -29 | B: -3 | C: 4 | D: 4 | E: 1 | F: 0.7 | G: 5633
molecule: O=C(NC1CCCC1)c1cccc(Cn2cc([N+](=O)[O-])cn2)c1
  A: -7 | B: / | C: / | D: -4 | E: / | F: / | G: 10108
molecule: Cc1nc(C(C)NC(=O)CCc2nnc(-c3ccsc3)o2)cs1 (configuration not stated)
  A: -32 | B: 7 | C: 7 | D: 1 | E: 5 | F: 3.0 | G: 3371
molecule: COc1ccc(/C(O)=C2/C(=O)C(=O)N(CCN3CCOCC3)C2c2ccccn2)cc1 (configuration not stated)
  A: -4 | B: / | C: / | D: / | E: 6 | F: 8.3 | G: 3518
molecule: O=c1c2ccccc2oc2ccc(-c3ccc4cc[nH]c4c3)cc12
  A: -23 | B: 3 | C: 4 | D: / | E: 11 | F: -8.7 | G: 4151
molecule: COc1ccccc1C1NC=C([N+](=O)[O-])C=C1[N+](=O)[O-] (configuration not stated)
  A: -14 | B: 5 | C: 8 | D: -5 | E: 7 | F: 10 | G: 2404
molecule: Cc1cc(NC(=O)c2cccc(F)c2)no1
  A: -35 | B: -4 | C: 2 | D: -8 | E: 10 | F: 16 | G: ?
molecule: COc1ccc2nc(NC(=O)CN3CCOCC3)sc2c1
  A: -17 | B: / | C: / | D: 7 | E: -6 | F: 0.8 | G: 5148
molecule: C/C=C(/C)C(=O)O[C@H]1[C@@H](O)c2c(ccc3ccc(=O)oc23)OC1(C)C
  A: 8 | B: / | C: / | D: -1 | E: / | F: / | G: 3699
molecule: C[C@H]1C(=O)N(C)CCN1C(=O)c1cccc(OC2CCN(CC(C)(C)C)CC2)c1
  A: -6 | B: 3 | C: 2 | D: 9 | E: -1 | F: -2.4 | G: 4161
molecule: CC1(C)CC(=O)c2c(Cc3ccccc3)n[nH]c2C1
  A: -19 | B: -3 | C: -3 | D: -9 | E: 6 | F: -6.1 | G: 3215

Record cards, from the list above:
O=c1c2ccccc2oc2ccc(-c3ccc4cc[nH]c4c3)cc12 is listed with PrP 5UTR inh = -23; Mtb hypoxia rep = 3; Mtb hypoxia rep growth = 4; BJeLR lethal = /; Sa ugtP lethal = 11; RN4220 kill = -8.7; Autofluor counter = 4151
COc1ccc2nc(NC(=O)CN3CCOCC3)sc2c1 is listed with PrP 5UTR inh = -17; Mtb hypoxia rep = /; Mtb hypoxia rep growth = /; BJeLR lethal = 7; Sa ugtP lethal = -6; RN4220 kill = 0.8; Autofluor counter = 5148

The order is random. About 4% of those tested had a hit in this group.
